Yeast UUG start = modulators of start codon recognition fidelity in yeast | S. cerevisiae UUG-firefly luciferase reporter, luminescence/redox ratio | activity score, % at 18.7 µM | hit rate 0.13% among 350,000;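 active = replicate mean at a twofold rise or more, about +100% in these data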;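 also: firefly luciferase made from a UUG start codon reports start codon fidelity; reporter light over untreated wells divided by growth signal over untreated wells; some hits fall short of that in this replicate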
Env fusion inh = inhibitors of HIV Env-mediated cell fusion; inhibition, % at 12.3 µM; HeLa-JRFL Env/CEM21 cell fusion, luciferase; hit rate 1.1% among 360,000;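 active = mean replicate inhibition score of at least 50 and every replicate individually at or above 50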;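 also: 0% = plate neutral controls and 100% = maraviroc near 300 nM; one replicate is shown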
* hit, by the source's call; [ ] = remark or other dose. The list is partial; rates above refer to the full screens.

C[C@@H]1CN([C@H](C)CO)C(=O)Cc2cc(NC(=O)Cn3cnnn3)ccc2O[C@H]1CN(C)Cc1ccc(C(F)(F)F)cc1 was read as Yeast UUG start 4.0 and Env fusion inh 3.5[16.7 µM].
NCC[C@@H]1CC[C@H](NS(=O)(=O)Cc2ccccc2)[C@@H](CO)O1 was read as Yeast UUG start -11.0 and Env fusion inh 10.3[16.7 µM].
CC(=O)Nc1ccc2c(c1)C(=O)N(C)[C@H]1CC[C@@H](CC(=O)NC3CCCCC3)O[C@H]1CO2 was read as Yeast UUG start -8.7 and Env fusion inh -3.9[16.7 µM].
Screening Cc1ccc(S(=O)(=O)NCC[C@@H]2CC[C@@H](NC(=O)c3cnccn3)[C@H](CO)O2)cc1 returned Yeast UUG start -2.8 and Env fusion inh 3.7[16.7 µM].
`Cc1noc(C)c1S(=O)(=O)Nc1ccc2c(c1)C(=O)N([C@@H](C)CO)C[C@@H](C)[C@@H](CN(C)Cc1ccc(C(=O)O)cc1)OCCCC[C@@H](C)O2` gave Yeast UUG start 5.0 and Env fusion inh -23.8[16.7 µM].
`C[C@@H]1CN([C@H](C)CO)C(=O)c2cccc(NS(=O)(=O)c3cccs3)c2O[C@@H]1CN(C)C(=O)Nc1ccc(F)cc1` gave Yeast UUG start 6.0 and Env fusion inh -15.6[16.7 µM].
Screening COc1ccc(S(=O)(=O)N(C)C[C@H]2Oc3cc(C#CC4CCCCC4)ccc3S(=O)(=O)N([C@H](C)CO)C[C@H]2C)cc1 returned Yeast UUG start -24.0 and Env fusion inh 19.8[16.7 µM].
Cc1ccc(S(=O)(=O)Nc2ccc3c(c2)C(=O)N([C@H](C)CO)C[C@H](C)[C@H](CN(C)C(=O)Nc2c(C)noc2C)OCCCC[C@@H](C)O3)cc1 was read as Yeast UUG start -7.8 and Env fusion inh -15.6[16.7 µM].
For Cc1noc(C)c1S(=O)(=O)N(C)C[C@H]1Oc2ccc(NS(=O)(=O)c3ccc(F)cc3)cc2C(=O)N([C@@H](C)CO)C[C@H]1C the results were Yeast UUG start 2.0 and Env fusion inh -12.5[16.7 µM].
For C[C@H](CO)N1C[C@H](C)[C@H](CN(C)Cc2ccncc2)OCCCC[C@H](C)Oc2ccc(NC(=O)Nc3ccc(F)cc3)cc2C1=O the results were Yeast UUG start 6.5 and Env fusion inh 39.4[16.7 µM].
C[C@@H]1CCCCO[C@H](CN(C)Cc2ccncc2)[C@@H](C)CN([C@H](C)CO)C(=O)c2cc(NS(=O)(=O)c3ccc(Cl)cc3)ccc2O1 was read as Yeast UUG start -1.2 and Env fusion inh -7.5[16.7 µM].
Screening O=C(C[C@@H]1C[C@H]2c3cc(NC(=O)NC4CCCC4)ccc3O[C@H]2[C@H](CO)O1)NCc1cccc(F)c1 returned Yeast UUG start 3.2 and Env fusion inh -3.8[16.7 µM].
Screening CO[C@H]1O[C@H](CO)[C@@H](OC(=O)Nc2cccc(F)c2)[C@H](OC(=O)Nc2ccccc2)[C@H]1OC(=O)Nc1ccccc1 returned Yeast UUG start -1.8 and Env fusion inh 0.1[16.7 µM].
`C[C@@H]1CN([C@H](C)CO)C(=O)c2cc(-c3cccc(C#N)c3)cnc2O[C@@H]1CN(C)Cc1ccc(F)cc1` gave Yeast UUG start -1.4 and Env fusion inh 1.7[16.7 µM].
`COc1ccc(S(=O)(=O)N[C@@H]2C=C[C@H](CC(=O)N3CCN(c4ccccc4)CC3)O[C@H]2CO)cc1` gave Yeast UUG start -9.5 and Env fusion inh -9.3[16.7 µM].

Some of these compounds in order of formula weight, highest first:
`Cc1noc(C)c1S(=O)(=O)Nc1ccc2c(c1)C(=O)N([C@@H](C)CO)C[C@@H](C)[C@@H](CN(C)Cc1ccc(C(=O)O)cc1)OCCCC[C@@H](C)O2` gave Yeast UUG start 5.0 and Env fusion inh -23.8[16.7 µM].
For C[C@H](CO)N1C[C@H](C)[C@H](CN(C)Cc2ccncc2)OCCCC[C@H](C)Oc2ccc(NC(=O)Nc3ccc(F)cc3)cc2C1=O the results were Yeast UUG start 6.5 and Env fusion inh 39.4[16.7 µM].
C[C@@H]1CN([C@H](C)CO)C(=O)Cc2cc(NC(=O)Cn3cnnn3)ccc2O[C@H]1CN(C)Cc1ccc(C(F)(F)F)cc1 was read as Yeast UUG start 4.0 and Env fusion inh 3.5[16.7 µM].

New compounds follow:
`C[C@@H]1CN([C@H](C)CO)C(=O)c2cc(C#CCN(C)C)cnc2O[C@H]1CN(C)Cc1ccc2c(c1)OCO2` gave Yeast UUG start -14.6 and Env fusion inh -2.8[16.7 µM].
`Cc1noc(C)c1NC(=O)Nc1ccc2c(c1)CC(=O)N([C@H](C)CO)C[C@@H](C)[C@H](CN(C)C(=O)NC(C)C)O2` gave Yeast UUG start -6.7 and Env fusion inh 9.6[16.7 µM].
For C[C@H](O)C#Cc1cnc2c(c1)C(=O)N([C@H](C)CO)C[C@@H](C)[C@H](CN(C)C(=O)CN(C)C)O2 the results were Yeast UUG start 9.3 and Env fusion inh -12.6[16.7 µM].
Screening C[C@@H]1CCCCO[C@@H](CN(C)S(=O)(=O)c2cccs2)[C@H](C)CN([C@@H](C)CO)C(=O)c2cc(NC(=O)NC3CCCCC3)ccc2O1 returned Yeast UUG start -2.9 and Env fusion inh 0.6[16.7 µM].
Screening N#C[C@@H]1[C@@H](c2ccccc2)[C@H](CO)N1C(=O)Cc1ccccc1 returned Yeast UUG start -3.4 and Env fusion inh 16.8[16.7 µM].
Screening COC(=O)C[C@H]1C=C[C@H](NS(=O)(=O)c2ccc(OC)cc2)[C@@H](CO)O1 returned Yeast UUG start -17.1 and Env fusion inh -16.2[16.7 µM].
`Cc1noc(C)c1NC(=O)Nc1ccc2c(c1)C(=O)N([C@H](C)CO)C[C@H](C)[C@@H](CN(C)S(=O)(=O)c1cccs1)OCCCC[C@@H](C)O2` gave Yeast UUG start -0.7 and Env fusion inh 23.6[16.7 µM].
Screening C[C@@H]1CN([C@H](C)CO)C(=O)c2cc(C#Cc3cccc(F)c3)cnc2O[C@@H]1CN(C)CC1CCOCC1 returned Yeast UUG start 10.7 and Env fusion inh 15.1[16.7 µM].
Cc1noc(C)c1S(=O)(=O)N(C)C[C@@H]1Oc2ccc(NC(=O)Nc3cccc4ccccc34)cc2CC(=O)N([C@@H](C)CO)C[C@H]1C was read as Yeast UUG start -13.1 and Env fusion inh 9.8[16.7 µM].
Screening Cc1noc(C)c1S(=O)(=O)N(C)C[C@@H]1OCCCC[C@@H](C)Oc2ccc(NS(C)(=O)=O)cc2C(=O)N([C@@H](C)CO)C[C@H]1C returned Yeast UUG start -2.6 and Env fusion inh 8.1[16.7 µM].
Screening CO[C@@H]1CN(C)C(=O)c2cc(NC(=O)c3cnccn3)ccc2OC[C@@H](C)NC[C@@H]1C returned Yeast UUG start -13.1 and Env fusion inh -34.1[16.7 µM].
C[C@@H]1CN([C@H](C)CO)C(=O)c2cc(Br)cnc2O[C@H]1CN(C)S(=O)(=O)c1ccc(F)cc1 was read as Yeast UUG start 27.2 and Env fusion inh -1.9[16.7 µM].
Cc1ccc(S(=O)(=O)N[C@H]2CC[C@@H](CC(=O)N3CCC(Cc4ccccc4)CC3)O[C@H]2CO)cc1 was read as Yeast UUG start 2.5 and Env fusion inh 26.6[16.7 µM].
`COC(=O)C[C@@H]1CC[C@H]2[C@H](COc3ccc(NC(=O)c4cccc(OC)c4)cc3C(=O)N2C)O1` gave Yeast UUG start 2.9 and Env fusion inh -5.2[16.7 µM].
For N#C[C@@H]1[C@@H](c2ccc(C#Cc3ccccc3F)cc2)[C@@H](CO)N1C(=O)C1CC1 the results were Yeast UUG start 0.7 and Env fusion inh 4.5[16.7 µM].

The final 3 compounds of the section before are carried over, then new ones follow.
Cc1ccc(S(=O)(=O)N[C@H]2CC[C@@H](CC(=O)N3CCC(Cc4ccccc4)CC3)O[C@H]2CO)cc1 was read as Yeast UUG start 2.5 and Env fusion inh 26.6[16.7 µM].
`COC(=O)C[C@@H]1CC[C@H]2[C@H](COc3ccc(NC(=O)c4cccc(OC)c4)cc3C(=O)N2C)O1` gave Yeast UUG start 2.9 and Env fusion inh -5.2[16.7 µM].
For N#C[C@@H]1[C@@H](c2ccc(C#Cc3ccccc3F)cc2)[C@@H](CO)N1C(=O)C1CC1 the results were Yeast UUG start 0.7 and Env fusion inh 4.5[16.7 µM].
C[C@@H]1CN([C@@H](C)CO)C(=O)Cc2cc(NC(=O)Nc3ccccc3)ccc2O[C@@H]1CN(C)Cc1ccc(Cl)c(Cl)c1 was read as Yeast UUG start 5.7 and Env fusion inh -66.1[16.7 µM].
Screening Cc1ccc(S(=O)(=O)N(C)C[C@H]2OCCCC[C@H](C)Oc3ccc(NC(=O)c4ccncc4)cc3C(=O)N([C@@H](C)CO)C[C@H]2C)cc1 returned Yeast UUG start -3.4 and Env fusion inh 9.7[16.7 µM].
Screening CO[C@@H]1CN(C)C(=O)c2cc(NS(=O)(=O)c3ccccc3C)ccc2OC[C@@H](C)N(C)C[C@H]1C returned Yeast UUG start -5.7 and Env fusion inh 4.8[16.7 µM].
For C[C@H](CO)N1C[C@H](C)[C@@H](CN(C)S(=O)(=O)c2cccs2)Oc2ccc(NS(=O)(=O)c3cn(C)cn3)cc2CC1=O the results were Yeast UUG start -4.7 and Env fusion inh 1.4[16.7 µM].
`CCC(=O)Nc1ccc2c(c1)C(=O)N(C)C[C@@H](OC)[C@@H](C)CN(C(=O)c1ccccc1F)[C@@H](C)CO2` gave Yeast UUG start -4.5 and Env fusion inh 5.2[16.7 µM].
`CCCC#Cc1cnc2c(c1)C(=O)N([C@@H](C)CO)C[C@@H](C)[C@H](CN(C)C(=O)Nc1cccc(F)c1)O2` gave Yeast UUG start 25.8 and Env fusion inh 9.0[16.7 µM].
C[C@H](O)C#Cc1cnc2c(c1)C(=O)N([C@@H](C)CO)C[C@H](C)[C@H](CN(C)C(=O)Cc1ccccn1)O2 was read as Yeast UUG start -5.6 and Env fusion inh 8.9[16.7 µM].
For N#C[C@H]1[C@H](c2ccc(-c3cccc(F)c3)cc2)[C@@H](CO)N1C(=O)NC1CCCC1 the results were Yeast UUG start 0.6 and Env fusion inh 26.9[16.7 µM].
For CCC(=O)Nc1ccc2c(c1)OC[C@@H](C)N(Cc1cccc(F)c1)C[C@@H](C)[C@H](OC)CN(C)C2=O the results were Yeast UUG start -14.1 and Env fusion inh 6.6[16.7 µM].
`C[C@H]1CN([C@@H](C)CO)C(=O)c2cc(C3=CCCC3)cnc2O[C@H]1CN(C)C(=O)c1ccccn1` gave Yeast UUG start -0.1 and Env fusion inh -0.9[16.7 µM].
`C[C@@H]1CCCCO[C@@H](CN(C)Cc2ccc3c(c2)OCO3)[C@@H](C)CN([C@H](C)CO)C(=O)c2cc(NC(=O)Nc3ccc(C(F)(F)F)cc3)ccc2O1` gave Yeast UUG start 10.2 and Env fusion inh 4.9[16.7 µM].
For O=C(C[C@@H]1CC[C@H](NC(=O)NC2CCCC2)[C@@H](CO)O1)NCc1ccc(F)cc1 the results were Yeast UUG start -14.3 and Env fusion inh 10.8[16.7 µM].
Screening COc1ccc(CN(C)C[C@@H]2OCCCC[C@@H](C)Oc3ccc(NC(=O)Nc4ccc5c(c4)OCO5)cc3C(=O)N([C@H](C)CO)C[C@@H]2C)cc1 returned Yeast UUG start 7.8 and Env fusion inh -28.9[16.7 µM].
Cc1ccc(S(=O)(=O)N(C)C[C@@H]2OCCCC[C@@H](C)Oc3ccc(NC(=O)CCCN(C)C)cc3C(=O)N([C@@H](C)CO)C[C@@H]2C)cc1 was read as Yeast UUG start 13.9 and Env fusion inh 2.2[16.7 µM].
For C[C@@H]1CCCCO[C@H](CN(C)Cc2ccc3c(c2)OCO3)[C@H](C)CN([C@H](C)CO)C(=O)c2cc(NC(=O)C3CCCCC3)ccc2O1 the results were Yeast UUG start 22.8 and Env fusion inh 5.2[16.7 µM].
Screening O=C(Nc1ccc2c(c1)OCO2)N[C@@H]1CC[C@H](CCNC(=O)C2CC2)O[C@@H]1CO returned Yeast UUG start -2.3 and Env fusion inh -7.8[16.7 µM].
C[C@@H]1CN([C@@H](C)CO)C(=O)c2cc(NC(=O)Nc3ccc(F)cc3)ccc2O[C@@H]1CN(C)C(=O)NC1CCCCC1 was read as Yeast UUG start -1.7 and Env fusion inh 21.0[16.7 µM].
CC(C)NC(=O)N(C)C[C@H]1Oc2ncc(C#CC3CCCCC3)cc2C(=O)N([C@H](C)CO)C[C@H]1C was read as Yeast UUG start 1.3 and Env fusion inh 22.1[16.7 µM].
Screening C[C@@H]1CN([C@@H](C)CO)C(=O)c2cc(NC(=O)CCC(F)(F)F)ccc2O[C@H]1CN(C)Cc1ccccc1 returned Yeast UUG start -2.0 and Env fusion inh -12.1[16.7 µM].
`COc1ccc(NC(=O)Nc2ccc3c(c2)C(=O)N([C@H](C)CO)C[C@@H](C)[C@@H](CN(C)Cc2ccc(C(=O)O)cc2)O3)cc1` gave Yeast UUG start 5.7 and Env fusion inh -6.9[16.7 µM].
Screening C[C@@H]1CN([C@H](C)CO)S(=O)(=O)c2ccc(-c3ccccc3)cc2O[C@H]1CN(C)C(=O)C1CCCCC1 returned Yeast UUG start 26.5 and Env fusion inh 22.7[16.7 µM].
O=C(C[C@@H]1CC[C@@H](NC(=O)Nc2ccc(F)cc2)[C@H](CO)O1)NCc1cccc(F)c1 was read as Yeast UUG start -10.4 and Env fusion inh -4.8[16.7 µM].
Screening CN1C(=O)c2cc(NC(=O)Nc3ccccc3)ccc2OC[C@@H]2O[C@@H](CC(=O)NC3CCC3)CC[C@@H]21 returned Yeast UUG start 3.4 and Env fusion inh 9.1[16.7 µM].
C[C@@H]1CN([C@H](C)CO)C(=O)c2cc(N(C)C)ccc2O[C@@H](C)CCCCO[C@H]1CN(C)S(=O)(=O)c1ccccc1 was read as Yeast UUG start 18.1 and Env fusion inh -5.2[16.7 µM].
For O=C(C[C@H]1CC[C@H](NS(=O)(=O)c2ccc(F)cc2)[C@@H](CO)O1)N1CCC(Cc2ccccc2)CC1 the results were Yeast UUG start 16.7 and Env fusion inh 12.4[16.7 µM].
Cc1noc(C)c1NC(=O)Nc1ccc2c(c1)CC(=O)N([C@H](C)CO)C[C@@H](C)[C@@H](CN(C)C(=O)Nc1ccccc1)O2 was read as Yeast UUG start 12.2 and Env fusion inh 14.8[16.7 µM].

Screening results from PubChem.
